From PubChem BioAssay
Tg IFNy HTS = inhibitors of Toxoplasma gondii growth with IFN-gamma; Toxoplasma gondii growth in IFN-gamma-treated host cells; stronger effect = lower value; reference of the scale not given here; activity change, negative = inhibition, %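 (about 20 µM by stock and volumes)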; 69,000 compounds, 3.8% hits; AID 1259416;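 active means below -70%; inconclusive means fit judged invalid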;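 further: host cells are HeLa cells infected with Toxoplasma gondii; parasite growth read as luciferase light; one replicate is shown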
* hit, by the source's call; i = inactive; ? = inconclusive.

SMILES	Tg IFNy HTS
CN1C(=O)c2cc(NC(=O)C3CCOCC3)ccc2OC[C@@H]2O[C@H](CC(=O)NCC3CCCCC3)CC[C@H]21	1
Cc1noc2c1C(c1ccc(-c3nc4ccccc4n3C)o1)CC(=O)N2 (stereo not given)	22
Cc1nnc(-c2ccc(C(=O)O)cc2)o1	-8
CC(C)CCN1C[C@]23CN(C(=O)COc4ccccc4)C[C@@H](C[C@H]2S1(=O)=O)O3	-6
Cc1ccc(-c2nc3c(s2)CN(S(=O)(=O)c2ccc(F)cc2F)CC3)cc1	-88*
CS(=O)(=O)NC[C@@]12COC[C@H]1CN(C(=O)c1cnccn1)C2	4
CN(C)C(=O)c1n[nH]c2c1CCN(Cc1ccc3c(c1)OCO3)C2	-1
Cc1cccc(Nc2cncc(C3CCCN(C(=O)c4cccnc4)C3)n2)n1 (stereo not given)	10
NC(=S)N/N=C/c1ncccc1N	-80*
CCS(=O)(=O)N1CCn2cc(Cn3cncn3)nc2C1	-6
CCOC1CC2(CCN(Cc3nccn3C)CC2)C1	57
O=C(Cn1ncc2c(N3CCOCC3)ncnc21)NCc1ccco1	23
CO[C@H]1COC[C@@H]1NC(=O)CCSc1ccc2c(c1)OCCO2	3
COc1nc2ccccc2cc1-c1cc(C(N)=O)ccn1	7
Cc1noc(C)c1CN1CCC(c2n[nH]c(=O)n2Cc2ccccc2)CC1	3
Cc1nc(-c2ccccc2)sc1CCNC(=O)C(=O)Nc1ccccc1[N+](=O)[O-]	i
CN1CCN(CCC(=O)NC(c2ccc(Cl)cc2)c2cccnc2)CC1 (stereo not given)	-17
CN(C)CCO[C@H]1CN(C(=O)c2ccc3c(c2)OCO3)[C@H]2COC[C@@H]12	0
CC(C)(C)n1c(=O)[nH]c2c(c1=O)CCC2	-33
Cc1noc([C@H]2COC[C@@H]3CN(C(=O)Cc4ccccc4F)C[C@@H]32)n1	-8
Cc1ccc(C(=O)N2CCOC3CCC2C3Oc2ncccc2F)o1 (stereo not given)	-15
Cc1ccccc1-n1nc(C)c2c1NC(=O)CC2c1cc(C(C)C)no1 (stereo not given)	6
Cc1ccc2c(c1)NC1(CCN(C(=O)c3ccccc3Br)CC1)c1cccn1-2	13
Oc1cc(-c2csc3ccccc23)cc2c1OCCN(CCn1cncn1)C2	-32
CC(C)NC(=O)N1CC[C@@H]2[C@H]1c1cc(C#Cc3ccccc3)ccc1N(C)[C@@H]2CO	13
Cc1cccc(CN2CCC(c3nn(C)c(=O)n3Cc3ccccc3)CC2)n1	4
CC12CC(c3ccccc3O1)C(C(=O)N1CCOCC1)C(=O)N2 (stereo not given)	24
CNC(=O)c1cc(=O)n(CC(=O)Nc2ccc(F)c(Cl)c2)c2ccccc12	8
O=C(Cc1ccncc1)NCC[C@@H]1CC[C@@H](NS(=O)(=O)c2ccccc2Cl)[C@@H](CO)O1	48
Cc1ccc(NC(=O)CN2CCC3(CC2)N=C(c2ccc(F)cc2)C(=O)N3)cc1C	1
CC1CCN(S(=O)(=O)c2ccc3c(c2)CCC(=O)N3CC(=O)Nc2ccccc2)CC1	-2
CC1Oc2ccc(NC(=O)c3ccn(C(F)F)n3)cc2NC1=O (stereo not given)	37
COc1ccc2nc(CCN(C)C(=O)c3cnn4cc(C)cnc34)[nH]c2c1	0
COc1ccc(-c2nc(NC(C)c3ccccc3)c3ccccc3n2)cc1 (stereo not given)	?
O=C(c1ccccn1)N1CC[C@H]2OCC[C@@]2(COc2ncccc2F)C1	-21
Cc1cccc(-c2nc3cnccn3c2NCCC(=O)N2CCC3(CC2)OCCO3)c1	10
CC(=O)c1cc([N+](=O)[O-])c(Sc2cccc(Cl)c2Cl)s1	15
CN(C)C(=O)c1nc(-c2cn(-c3ccccn3)cn2)n2ccccc12	11
Cc1noc(C)c1NC(=O)Nc1cccc2c1O[C@H](CN(C)Cc1ccc(C(=O)Nc3ccccc3N)cc1)[C@@H](C)CN([C@H](C)CO)C2=O	3
COC(C)(C)C(=O)N1CCC(c2cc(Cc3c(F)cccc3F)cc(C)n2)CC1	-57

16 neighbouring records out of the list so far:
SMILES	Tg IFNy HTS
Cc1ccc(-c2nc3c(s2)CN(S(=O)(=O)c2ccc(F)cc2F)CC3)cc1	-88*
CS(=O)(=O)NC[C@@]12COC[C@H]1CN(C(=O)c1cnccn1)C2	4
CN(C)C(=O)c1n[nH]c2c1CCN(Cc1ccc3c(c1)OCO3)C2	-1
Cc1cccc(Nc2cncc(C3CCCN(C(=O)c4cccnc4)C3)n2)n1 (stereo not given)	10
NC(=S)N/N=C/c1ncccc1N	-80*
CCS(=O)(=O)N1CCn2cc(Cn3cncn3)nc2C1	-6
CCOC1CC2(CCN(Cc3nccn3C)CC2)C1	57
O=C(Cn1ncc2c(N3CCOCC3)ncnc21)NCc1ccco1	23
CO[C@H]1COC[C@@H]1NC(=O)CCSc1ccc2c(c1)OCCO2	3
COc1nc2ccccc2cc1-c1cc(C(N)=O)ccn1	7
Cc1noc(C)c1CN1CCC(c2n[nH]c(=O)n2Cc2ccccc2)CC1	3
Cc1nc(-c2ccccc2)sc1CCNC(=O)C(=O)Nc1ccccc1[N+](=O)[O-]	i
CN1CCN(CCC(=O)NC(c2ccc(Cl)cc2)c2cccnc2)CC1 (stereo not given)	-17
CN(C)CCO[C@H]1CN(C(=O)c2ccc3c(c2)OCO3)[C@H]2COC[C@@H]12	0
CC(C)(C)n1c(=O)[nH]c2c(c1=O)CCC2	-33
Cc1noc([C@H]2COC[C@@H]3CN(C(=O)Cc4ccccc4F)C[C@@H]32)n1	-8

The list goes on:
SMILES	Tg IFNy HTS
O=C1CCC2(CCN(c3ncccn3)CC2)N1CC1CC1	128
Cc1cccc(C2(O)C(=O)N(Cc3nc(-c4ccccc4)oc3C)c3ccccc32)c1 (stereo not given)	-36
O=C(CS(=O)(=O)Nc1ccc(Cl)cc1)CS(=O)(=O)Nc1ccc(Cl)cc1	14
COc1ccc2c(OCc3nnc4ccc(-c5ccccc5)nn34)ccnc2c1	-5
CCCN1C(=O)CCc2cc(NC(=O)Cc3c(F)cccc3Cl)ccc21	116
CN(C)C(=O)c1cccc(-c2ccccc2[C@H]2[C@H](C#N)N(C(=O)C3CCCCC3)[C@H]2CO)c1	-50
Cc1cccc(S(=O)(=O)Nc2ccc3c(c2)CCC(=O)N3CC(C)C)c1	-69
COc1ccc(-c2cccc(-c3nc(C(=O)N(C)C)cc4c3[C@@H](CCO)N([S@](=O)C(C)(C)C)C4)c2)cc1	-23
CCc1c(C)c(C#N)c2nc3ccccc3n2c1NCCN1CCOCC1	103
CCCC(=O)N1CCCN(c2nc(N)c3cc(OC)c(OC)cc3n2)CC1	19
CCOC(=O)Cn1nnc(Cc2c(Cl)cccc2Cl)n1	-8
C[C@@H]1CCCCO[C@@H](CN(C)CC2CCCCC2)[C@@H](C)CN([C@H](C)CO)C(=O)c2cc(NC(=O)Nc3ccc(C(F)(F)F)cc3)ccc2O1	173
CC(=O)Nc1ccc(NC(=O)Cn2c(=O)cc(C(=O)N3CCOCC3)c3ccccc32)cc1	8
CC(C)c1csc(NC(=O)C2CCN(S(=O)(=O)c3ccc(F)cc3)C2)n1 (stereo not given)	-33
COCCCN(Cc1ccc(C)cc1)C(=O)C1CC2(CCNCC2)CN1 (stereo not given)	4
Cc1cccc(CNC(=O)c2ccccc2NC(=O)C(C)N2CCCC2=O)c1 (stereo not given)	-5
O=C(C1CCOC1)N1C[C@H]2CN(Cc3cccc(F)c3)C(=O)[C@@H]2C1 (stereo not given in full)	-3
CCOC(=O)c1sc(-c2cnccn2)nc1C	11
Cc1noc(C)c1NC(=O)N(C)C[C@H]1OCc2ccccc2-c2c(n(C)c3ccccc23)C(=O)N([C@@H](C)CO)C[C@@H]1C	7
Cc1nc2ncc(C(=O)NC3CC(C)(C)Oc4ccccc43)c(C)n2n1 (stereo not given)	8
COc1ccc2[nH]c3c(c2c1)CCNC31C(=O)N(CCC(C)C)c2ccccc21 (stereo not given)	68
C[C@@H]1CN([C@@H](C)CO)C(=O)c2cc(NC(=O)Nc3ccc(C(F)(F)F)cc3)ccc2O[C@@H](C)CCCCO[C@@H]1CN(C)CC1CCCCC1	i
CC1CN(C)CCC1CCc1ccc(NC(=O)CC2NC(=O)c3ccccc32)cc1 (stereo not given)	-3
CC(=O)N1N=C(c2cccs2)CC1c1ccc(C)o1 (stereo not given)	-11
O=C(NC1CC1)c1cc2n(n1)CCCNC2	-8
COc1cc(N2C[C@@H]3[C@@H]4CC[C@@H](C4)[C@@H]3C2)nc(N)n1	8
CN1C(=O)CCc2cc(NC(=O)c3cccc(F)c3)ccc21	225
CCc1nc(CN2CCc3[nH]cnc3C2c2ccc(NC(C)=O)cc2)c(C)[nH]1 (stereo not given)	6
O=C(Nc1cccc(-n2cnnn2)c1)c1ccccc1	2
C[C@@H]1CN([C@@H](C)CO)C(=O)c2cc(NC(=O)C3CCCCC3)ccc2O[C@@H](C)CCCCO[C@@H]1CN(C)C(=O)CCC(F)(F)F	134
Cc1nc2ccccn2c1CN(C)Cc1nc(-c2cccnc2)no1	-35
c1ccc2c(c1)COC(c1ccnc3ccccc13)N2 (stereo not given)	23
Cc1ccc(CN2CCOC3(CCN(CC4CCOC4)CC3)C2)cc1 (stereo not given)	-18
COc1ccc(C(=O)N2C[C@H]3[C@@H](c4ccccc42)[C@@H](CO)N3C(=O)Cc2ccccn2)cc1	0
COC(=O)c1c(NC(C)c2cccc(OC)c2)c2cccc(Cl)c2[nH]c1=O (stereo not given)	-36
Cc1cc(S(=O)(=O)N2CCN(c3ccc(F)cc3)CC2)ccc1-n1cnnn1	29
Cc1ccc(NC(=O)Cn2c(=O)cc(-c3nc(C)no3)c3ccccc32)c(F)c1	10
O=C(NCc1ccco1)N1CCCC2(C1)Nc1cccnc1NC2=NCc1ccccc1 (stereo not given)	-63
CC(=O)Nc1ccc2c(c1)NC(=O)CC2c1ccnc2ccccc12 (stereo not given)	-11
CN(Cc1cc(-c2ccncc2)no1)Cc1ccc(C2CCCCO2)s1 (stereo not given)	-15
COc1ccc(NC(=O)c2c(O)c3cccnc3n(-c3ccc(OC)cc3)c2=O)cc1	53
COc1cc(OC)cc(C(C)(C)OC(=O)N[C@@H](CC(C)C)C(=O)O)c1	-3
CCOC(=O)Cc1c(C)nc(N)[nH]c1=O	4
CO[C@H]1CN(C)C(=O)c2cc(NC(=O)NC3CCCCC3)ccc2OC[C@H](C)N(CC2CCOCC2)C[C@H]1C	-5
COC(=O)CCCCC1=C(NC(C)=O)C(NC(=O)c2ccccc2)CS1 (stereo not given)	7
COCCN1C(=O)CCC12CCC(NC(=O)Cc1ccccc1)CC2 (stereo not given)	3
CN(C)[C@@H]1C(=O)C(C(=O)NCN2CCCC2)=C(O)[C@@]2(O)C(=O)C3=C(O)c4c(O)cccc4[C@@](C)(O)C3CC12 (stereo not given in full)	4
Cc1cc(CN2CCC3C2CC(=O)N3CCN2CCOCC2)oc1C (stereo not given)	-4
Cc1cc(C(=O)NC(C)C(=O)Nc2ccc(F)cc2C)n[nH]1 (stereo not given)	6
Cc1noc(C)c1NC(=O)N(C)C[C@@H]1OCCCC[C@@H](C)Oc2ccc(NC(=O)CCCCCC(=O)Nc3ccccc3N)cc2C(=O)N([C@H](C)CO)C[C@@H]1C	123
CN(C)C(=O)N1CCC(c2cc3c(ncn3C)c(-c3cnn(C)c3)n2)CC1	-64
O=C(CCC1Nc2c3ccccc3nc(=S)n2C1=O)NC1CC1 (stereo not given)	-19
CCc1ccccc1NC(=O)Cn1c(=O)cc(-c2nc(C3CC3)no2)c2ccccc21	-39
COCc1cncc2c1CCN(C(=O)c1ccncc1)C2	-98*
Cc1cc(-c2cnc(N)nc2)cc(C2CCN(C(=O)Cc3ccc(F)cc3)C2)n1 (stereo not given)	-49
CCCNC(=O)N1[C@@H]2Cn3c(cccc3=O)[C@H]1[C@@H](C(=O)N1CCC(Cc3ccccc3)CC1)[C@@H]2CO	-2
Cc1oc(C2CCN(C(=O)Nc3ccccc3Cl)CC2)nc1C(=O)N1CCCC1	-32
COCCN1C(=O)CCc2cc(NC(=O)CC(C)C)ccc21	40
NC(=O)c1ccc(I)c([N+](=O)[O-])c1	20
C[C@@H]1CN([C@H](C)CO)C(=O)c2cc(C3=CCCCC3)cnc2O[C@@H]1CN(C)S(=O)(=O)c1cn(C)cn1	?

Reprinted at random: 2 entries already listed, in no set order.
SMILES	Tg IFNy HTS
Cc1cc(-c2cnc(N)nc2)cc(C2CCN(C(=O)Cc3ccc(F)cc3)C2)n1 (stereo not given)	-49
CCOC(=O)Cc1c(C)nc(N)[nH]c1=O	4

Next structures.
SMILES	Tg IFNy HTS
COc1cc(OC)c(-c2c(C#N)c(N)nc(OC)c2C#N)c(OC)c1	36
CO[C@@H]1CCN(C(=O)CS(C)(=O)=O)[C@@H]2CCO[C@H]21	-4
O=C(c1cn(-c2ccccc2)nn1)N1CCN(C(=O)C2CCCO2)CC1 (stereo not given)	8
CCn1cnc2c1C(C(=O)O)CN(c1ccc(C)nn1)C2 (stereo not given)	61
COc1ccc2c(c1)NC1(CCN(C(=O)Nc3ccccc3C(F)(F)F)CC1)c1cccn1-2	150
COc1cccc(C(=O)NCCc2csc(-c3ccc(Cl)cc3)n2)c1	22
NC1CCN(c2c(F)cc3c(=O)c(C(=O)O)cn(C4CC4)c3c2Cl)C1 (stereo not given)	-10
COCCN(Cc1ccco1)c1nc(-c2ccc(OC)cc2)nc2ccccc12	-26
COc1ccc2oc(C(=O)NCc3nccn3C)c(C)c2c1	22
c1cnn(-c2ccc(-c3ccc(CN4CCNCC4)cc3)cc2)c1	-40
Cc1nc(OCC(=O)Nc2ccc(Cl)c(Cl)c2)c2ccccc2n1	1
COc1ccccc1-c1nccn1CCc1n[nH]c(=O)[nH]1	-3
CS(=O)(=O)N1[C@@H](C#N)[C@@H](c2ccc(-c3ccccc3F)cc2)[C@@H]1CO	13
Cc1ccc2c(n1)N(CC1CC1)CCN(C(=O)C1CCOCC1)C2	-4
CCC(OC(=O)c1ccco1)C(=O)NCc1ccccc1 (stereo not given)	-56
Cc1nc(OCC(=O)Nc2ccc(Cl)cc2)c2ccccc2n1	17
CNC[C@H]1OCc2cn(nn2)CCCC(=O)N([C@H](C)CO)C[C@@H]1C	163
CC1CCN(S(=O)(=O)c2ccc3c(c2)CCC(=O)N3CC(=O)N2CCCCCC2)CC1	1

An excerpt, so the mix of outcomes need not match the whole.
